# M5 PAM: human M5 muscarinic receptor positive allosteric modulators, primary screen, CHO-K1 cells, Fluo-8 calcium fluorescence. activation, % at 3 µM. CHO-K1 hM5, ACh EC20 PAM; 0% = ACh EC20, 100% = ACh EC100. Muscarinic acetylcholine receptor M5 (Homo sapiens), P08912. actives 0.3% (n = 360,000);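 active = activation above the run cutoff, the mean activation of all test compounds plus 3 SD, cut at about 18% in these data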
# Target sequence (P08912 whole entry, looked up): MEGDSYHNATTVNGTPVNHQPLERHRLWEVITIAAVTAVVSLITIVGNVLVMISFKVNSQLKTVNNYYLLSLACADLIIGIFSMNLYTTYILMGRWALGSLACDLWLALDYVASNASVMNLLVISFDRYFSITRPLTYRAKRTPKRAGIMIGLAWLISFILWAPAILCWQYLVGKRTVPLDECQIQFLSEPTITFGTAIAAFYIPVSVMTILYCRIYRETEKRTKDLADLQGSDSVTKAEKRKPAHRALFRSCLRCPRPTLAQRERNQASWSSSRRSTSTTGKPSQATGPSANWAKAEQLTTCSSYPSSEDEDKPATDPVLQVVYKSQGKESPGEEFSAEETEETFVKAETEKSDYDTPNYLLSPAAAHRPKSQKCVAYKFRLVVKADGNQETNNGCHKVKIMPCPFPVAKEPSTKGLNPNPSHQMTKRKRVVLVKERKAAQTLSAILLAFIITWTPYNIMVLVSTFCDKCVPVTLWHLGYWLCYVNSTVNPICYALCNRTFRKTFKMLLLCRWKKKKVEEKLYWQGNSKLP
#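 Probe or stimulus: acetylcholine, EC20 level; Assay system: human M5 receptor in CHO-K1 cells; Schedule: compound preincubation 140 s before EC20 acetylcholine addition; Technique: intracellular calcium via Fluo-8 fluorescence; Dosing: single-point, 3 µM nominal; Read-out basis: percent activation from peak-over-basal fluorescence ratio, scaled EC20-to-EC100 acetylcholine; Repeats: one well per compound, no replicates.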
# TAAR1 ag: human TAAR1 agonists, primary screen, Fluo-8 calcium fluorescence, CHO RD-HGA16 cells; activation, % at 3 µM; Trace amine-associated receptor 1 (Homo sapiens), Q96RJ0; actives 0.99% (n = 360,000); vehicle wells 0%, saturating PEA agonist 100%; AID 624467, 2012;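 active = activation above the mean activation of all test compounds in the run plus 3 SD, cut at about 38% in these data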
#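 System: CHO-derived RD-HGA16 cells with stable Gα16 and human TAAR1. Times: 17-24 h plating, Fluo-8 75 min 37 °C, 30 min RT. Measured by: calcium-sensitive Fluo-8 signal, excitation 470-495, emission 515-575 nm. Read-out basis: % activation relative to PEA EC100 response. Control set: DMSO and PEA EC100. Repeats: no replicates (n 1).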
# CHRM4 antagonist: human M4 muscarinic receptor antagonists, primary screen, CHO cells, Fluo-8 calcium fluorescence | CHO-hM4 cells, ACh EC80 | inhibition, % at 3 µM | AID 624125, 2012 | actives 0.73% (n = 360,000) | Muscarinic acetylcholine receptor M4 (Homo sapiens), P08173;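 active = inhibition above its plate's cutoff, the mean inhibition of sample wells plus 3 SD, cut at about 27% in these data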;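 note: 0% = acetylcholine EC80 with DMSO and 100% = DMSO without agonist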
# Target sequence (P08173 whole entry, looked up): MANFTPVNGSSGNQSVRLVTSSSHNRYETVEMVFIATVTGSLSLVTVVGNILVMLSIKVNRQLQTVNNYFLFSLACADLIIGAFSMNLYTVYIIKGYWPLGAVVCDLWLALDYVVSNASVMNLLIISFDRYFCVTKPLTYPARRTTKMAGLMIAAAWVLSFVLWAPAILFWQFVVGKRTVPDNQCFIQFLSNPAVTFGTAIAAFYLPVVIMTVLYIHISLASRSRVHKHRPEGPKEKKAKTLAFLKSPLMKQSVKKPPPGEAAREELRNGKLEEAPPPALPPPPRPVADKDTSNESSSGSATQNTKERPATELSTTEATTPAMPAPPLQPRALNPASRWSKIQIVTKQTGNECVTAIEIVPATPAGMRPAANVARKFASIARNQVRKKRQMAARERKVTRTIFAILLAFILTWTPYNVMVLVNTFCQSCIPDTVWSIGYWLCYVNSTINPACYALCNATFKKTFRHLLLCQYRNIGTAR
# M5 ag: human M5 muscarinic receptor agonists, primary screen, CHO-K1 cells, Fluo-8 calcium fluorescence | Muscarinic acetylcholine receptor M5 (Homo sapiens), P08912 | CHO-K1 hM5 cells; 0% DMSO wells, 100% maximal acetylcholine response | activation, % at 3 µM | actives 0.19% (n = 360,000);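 active = activation above the run's mean over test compounds plus 3 SD, cut at about 23% in these data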;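 note: signal is peak over basal fluorescence ratio across the kinetic read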
# CHRM5 antagonist: human M5 muscarinic receptor antagonists, primary screen, CHO cells, Fluo-8 calcium fluorescence | Muscarinic acetylcholine receptor M5 (Homo sapiens), P08912 | AID 624040, 2012 | inhibition, % at 3 µM | CHO-hM5 cells, ACh EC80 | actives 0.59% (n = 360,000);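 active = inhibition above a per-plate cutoff, the mean of that plate's test compounds plus 3 SD, cut at about 27% in these data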;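 note: 0% = acetylcholine EC80 with DMSO and 100% = DMSO without agonist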
# An asterisk follows results filed as active; x = not tested or not shown; & = joins results of further samples. Only part of the results is shown, so the mix of outcomes need not match the whole.
# Key to letters – A = M5 PAM; B = TAAR1 ag; C = CHRM4 antagonist; D = M5 ag; E = CHRM5 antagonist
(1) CN1CCc2cccc3c2[C@@H]1Cc1ccc(O)c(O)c1-3
  A = -2.4; B = x; C = -4.7; D = 0.6; E = 1.8

(2) NC(=O)c1ccccc1O
  A = -4.6; B = 0.5; C = -6.8; D = 0.0; E = 4.9

(3) NCC[C@H](O)C(=O)N[C@@H]1C[C@H](N)[C@@H](O[C@H]2O[C@H](CN)[C@@H](O)[C@H](O)[C@H]2O)[C@H](O)[C@H]1O[C@H]1O[C@H](CO)[C@@H](O)[C@H](N)[C@H]1O
  A = 4.6; B = 0.9; C = -7.6; D = 1.8; E = 1.1

(4) Nc1nc(F)nc2c1ncn2[C@@H]1O[C@H](CO)[C@@H](O)[C@@H]1O
  A = 3.8; B = 0.9; C = -5.7; D = 0.1; E = -4.3

(5) NCC1CCC(C(=O)Oc2ccc(CCC(=O)O)cc2)CC1 (stereo not given)
  A = -7.8; B = 2.2; C = -8.3; D = 23.7*; E = -2.3

(6) CCC1(O)CC2CN(CCc3c([nH]c4ccccc34)C(C(=O)OC)(c3cc4c(cc3OC)N(C=O)C3C(O)(C(=O)OC)C(OC(C)=O)C5(CC)C=CCN6CCC43C65)C2)C1 (stereo not given)
  A = -2.1; B = 1.9; C = -6.2; D = 0.4; E = -0.1

(7) CC1=C(CC(=O)O)c2cc(F)ccc2/C1=C\c1ccc(S(C)=O)cc1 (stereo not given)
  A = -2.0; B = 2.7; C = -1.8; D = 1.1; E = 2.2

(8) CC(=O)Oc1ccc(Cn2c(C)c(C(=O)NCc3ccc(C#N)cc3)sc2=O)cc1
  A = -14.4; B = 139.6*; C = 0.8; D = 47.2*; E = 10.3

(9) CN1C(C(=O)Nc2ccccn2)=C(O)c2ccccc2S1(=O)=O
  A = -4.8; B = 0.1; C = -3.9; D = 1.5; E = -1.5

(10) CC(C(=O)O)c1cccc(Oc2ccccc2)c1 (stereo not given)
  A = -0.9; B = 0.4; C = -1.1; D = -0.1; E = 1.1

(11) CCc1oc2ccccc2c1C(=O)c1cc(Br)c(O)c(Br)c1
  A = -8.4; B = 0.5; C = 6.9; D = 2.7; E = 7.1

(12) COC(=O)Nc1nc2ccc(C(=O)c3cccs3)cc2[nH]1
  A = 0.6; B = 8.9; C = -3.5; D = 1.2; E = -1.4

(13) CN(C)C(=O)Oc1cccc([N+](C)(C)C)c1
  A = -2.3&0.0; B = 0.7&2.3; C = -5.3&-2.9; D = 0.6&0.1; E = -6.4&-7.0

(14) NC1C2CN(c3nc4c(cc3F)c(=O)c(C(=O)O)cn4-c3ccc(F)cc3F)CC12 (stereo not given)
  A = -5.1; B = x; C = 5.8; D = 1.1; E = 6.6

(15) CCOC(=O)C1=C(C)NC(C)=C(C(=O)OC)C1c1cccc([N+](=O)[O-])c1 (stereo not given)
  A = -9.2; B = -2.2; C = 0.8; D = -0.9; E = 5.5

(16) CCC[C@@H]1C[C@@H](C(=O)NC(C(C)Cl)[C@H]2O[C@H](SC)[C@H](O)[C@@H](O)[C@H]2O)N(C)C1 (stereo not given in full)
  A = 7.3; B = 0.7; C = -13.6; D = 0.3; E = -6.1

(17) CNC(=O)Oc1ccc2c(c1)[C@]1(C)CCN(C)C1N2C (stereo not given in full)
  A = -2.4; B = 1.8; C = 1.0; D = 3.8; E = 1.1

(18) O=C1CCC(N2C(=O)c3ccccc3C2=O)C(=O)N1 (stereo not given)
  A = -1.5; B = 1.9; C = -7.2; D = 0.8; E = -0.5

(19) Cc1nccn1C[C@@H]1CCc2c(c3ccccc3n2C)C1=O
  A = -2.1; B = 0.1; C = 20.6; D = -1.5; E = 1.9

(20) CC1=C(CC(=O)O)c2cc(F)ccc2C1=Cc1ccc(S(C)(=O)=O)cc1
  A = -5.8; B = 4.7; C = 5.4; D = 4.4; E = 0.3

(21) CC(C)=CCCC(C)NC(=O)NC1CCCCC1 (stereo not given)
  A = 2.5; B = 2.0; C = 3.6; D = -4.3; E = -4.1

(22) CC(C)(C)NC[C@H](O)COc1cccc2c1CCCC2=O
  A = -1.0; B = 1.3; C = -2.7; D = -0.7; E = -3.5

(23) C=C1C(=O)OC2C1CCC(C)=CCCC1(C)OC21 (stereo not given)
  A = -1.4; B = 0.8; C = 2.0; D = 4.1; E = 0.1

(24) Cc1cc(C(C#N)c2ccc(Cl)cc2)c(Cl)cc1NC(=O)c1cc(I)cc(I)c1O (stereo not given)
  A = -15.4; B = 2.1; C = -2.7; D = 13.3; E = 17.8

(25) COc1cc(/C=C(\C#N)c2nc3c(s2)CC(C)CC3)ccc1O (stereo not given)
  A = -4.9; B = 22.9; C = 21.9; D = 6.0; E = 17.4

# (more compounds)
# Key to letters – A = M5 PAM; B = TAAR1 ag; C = CHRM4 antagonist; D = M5 ag; E = CHRM5 antagonist
(26) C[N+](C)(C)CCOC(=O)CCC(=O)OCC[N+](C)(C)C
  A = -2.6; B = 2.9&0.7; C = -3.7; D = 1.7; E = -1.2

(27) NNCCc1ccccc1
  A = -1.1; B = 75.4*; C = -2.5; D = -1.4; E = -2.1

(28) C1CCN2CC3CC(CN4CCCC[C@@H]34)[C@H]2C1
  A = -1.3; B = 1.9; C = 2.6; D = -1.2; E = 1.8

(29) CCC(c1ccccc1)c1noc(CCN(CC)CC)n1 (stereo not given)
  A = -19.1; B = 1.6; C = 59.4*; D = -2.6; E = 58.5*

(30) Cn1c(=O)c2c(ncn2CC(O)CO)n(C)c1=O (stereo not given)
  A = -3.3; B = 0.7; C = -19.1; D = 0.8; E = 1.4

(31) C[C@]12CC[C@@H]3c4ccc(OC(=O)c5ccccc5)cc4CC[C@H]3[C@@H]1CC[C@@H]2O
  A = -0.7; B = 0.4; C = 0.5; D = -0.1; E = 2.0

(32) CC1CCC(NC(=O)N(CCCl)N=O)CC1 (stereo not given)
  A = 6.5; B = 9.7; C = -1.3; D = 1.0; E = -6.8

(33) OC(CNCC1CCCO1)Cn1c2ccccc2c2ccccc21 (stereo not given)
  A = 2.3; B = 7.1; C = -3.4; D = -2.1; E = -6.0

(34) CC(C)(c1ccc(O)cc1)c1ccc(O)cc1
  A = 7.9; B = 4.0; C = 16.4; D = -0.8; E = -1.4

(35) CN1CCN2c3ncccc3Cc3ccccc3C2C1 (stereo not given)
  A = -18.2; B = 1.6; C = 7.1; D = -1.7; E = 22.4

(36) CCC[C@@H]1C[C@@H](C(=O)N[C@H]([C@@H](C)O)[C@H]2O[C@H](SC)[C@H](O)[C@@H](O)C2O)N(C)C1 (stereo not given in full)
  A = -5.4; B = 3.6; C = 4.4; D = 0.8; E = -3.9

(37) CC(=O)OCC(COC(C)=O)OC(C)=O
  A = -0.3; B = 1.1; C = -5.4; D = 0.6; E = -3.0

(38) Nc1ccc(S(=O)(=O)Nc2nccs2)cc1
  A = -4.7; B = 0.6; C = 3.9; D = 0.8; E = 1.7

(39) Cc1cc(C)c2c(CC(=O)Nc3nccs3)coc2c1
  A = 5.3; B = 17.9; C = 4.2; D = -2.1; E = 9.6

(40) CC(C)NC[C@H](O)c1ccc(O)c(O)c1
  A = -3.2; B = 1.2; C = -4.5; D = 0.5; E = -6.4

(41) CC(C)C[C@H]1C(=O)N2CCC[C@H]2[C@]2(O)O[C@](NC(=O)C3C=C4c5cccc6[nH]c(Br)c(c56)C[C@H]4N(C)C3)(C(C)C)C(=O)N12 (stereo not given in full)
  A = -2.6; B = 3.0; C = 0.1; D = 1.0; E = 2.2

(42) CC(=O)C1(O)CCC2C3CC(C)C4=CC(=O)CCC4(C)C3CCC21C (stereo not given)
  A = -0.8; B = -0.8; C = 44.0*; D = -0.1; E = -8.1

(43) CCCNC(=O)NS(=O)(=O)c1ccc(Cl)cc1
  A = -7.8; B = -0.2; C = 7.7; D = -0.4; E = 3.5

(44) C[N+](C)(C)C[C@H](O)CC(=O)O
  A = -4.2; B = 4.3; C = -13.9; D = 0.5; E = -3.3

(45) CC[N+](CC)(CC(=O)Nc1c(C)cccc1C)Cc1ccccc1
  A = -1.9; B = 2.1; C = 0.4; D = -0.3; E = 1.8

(46) CCN(CC)c1ccc2oc(=O)c(C)nc2c1
  A = -10.8; B = 81.0*; C = 9.2; D = 16.6; E = 20.3

(47) Cc1nccn1CC1CCc2c(c3ccccc3n2C)C1=O (stereo not given)
  A = 2.0&1.8; B = 1.9&-0.3; C = -9.0&-10.7; D = -0.4&-0.2; E = -1.4&0.4

(48) NNC(=O)c1ccncc1
  A = 0.1; B = 2.1; C = -14.7; D = 0.0; E = -2.6

(49) c1ccc2c(c1)OCC(CNc1ncnc3nc[nH]c13)O2 (stereo not given)
  A = -25.7; B = 225.4*; C = 65.3*; D = 108.3*; E = 46.2*

(50) Cc1onc(-c2ccccc2)c1-c1ccc(S(N)(=O)=O)cc1
  A = -3.8; B = 1.4; C = 4.1; D = 0.8; E = 3.3

(51) CCC(c1nnnn1Cc1cccs1)N1CCN(c2nc3ccccc3s2)CC1 (stereo not given)
  A = -25.1; B = 13.2; C = -12.6; D = -9.6; E = 7.7

(52) NC(=O)C1=C[C@H](c2csc3ccccc23)C[C@H](OCc2ccc(CO)cc2)O1
  A = -18.2; B = 60.3*; C = -5.5; D = 19.7; E = -2.2

(53) CC(=O)S[C@@H]1CC2=CC(=O)CC[C@]2(C)[C@H]2CC[C@@]3(C)[C@@H](CC[C@@]34CCC(=O)O4)[C@H]12
  A = -0.3; B = 1.0; C = -8.8; D = 0.5; E = -6.8

# Compound profiles, as listed above.
# `CCC(c1ccccc1)c1noc(CCN(CC)CC)n1` (stereo not given) is listed as M5 PAM = -19.1; TAAR1 ag = 1.6; CHRM4 antagonist = 59.4*; M5 ag = -2.6; CHRM5 antagonist = 58.5*
# `C[N+](C)(C)C[C@H](O)CC(=O)O` is listed as M5 PAM = -4.2; TAAR1 ag = 4.3; CHRM4 antagonist = -13.9; M5 ag = 0.5; CHRM5 antagonist = -3.3

# By substructure, those above containing a halogen
# Key to letters – A = M5 PAM; B = TAAR1 ag; C = CHRM4 antagonist; D = M5 ag; E = CHRM5 antagonist
(4) Nc1nc(F)nc2c1ncn2[C@@H]1O[C@H](CO)[C@@H](O)[C@@H]1O
  A = 3.8; B = 0.9; C = -5.7; D = 0.1; E = -4.3

(7) CC1=C(CC(=O)O)c2cc(F)ccc2/C1=C\c1ccc(S(C)=O)cc1 (stereo not given)
  A = -2.0; B = 2.7; C = -1.8; D = 1.1; E = 2.2

(11) CCc1oc2ccccc2c1C(=O)c1cc(Br)c(O)c(Br)c1
  A = -8.4; B = 0.5; C = 6.9; D = 2.7; E = 7.1

(14) NC1C2CN(c3nc4c(cc3F)c(=O)c(C(=O)O)cn4-c3ccc(F)cc3F)CC12 (stereo not given)
  A = -5.1; B = x; C = 5.8; D = 1.1; E = 6.6

(16) CCC[C@@H]1C[C@@H](C(=O)NC(C(C)Cl)[C@H]2O[C@H](SC)[C@H](O)[C@@H](O)[C@H]2O)N(C)C1 (stereo not given in full)
  A = 7.3; B = 0.7; C = -13.6; D = 0.3; E = -6.1

(20) CC1=C(CC(=O)O)c2cc(F)ccc2C1=Cc1ccc(S(C)(=O)=O)cc1
  A = -5.8; B = 4.7; C = 5.4; D = 4.4; E = 0.3

(24) Cc1cc(C(C#N)c2ccc(Cl)cc2)c(Cl)cc1NC(=O)c1cc(I)cc(I)c1O (stereo not given)
  A = -15.4; B = 2.1; C = -2.7; D = 13.3; E = 17.8

(32) CC1CCC(NC(=O)N(CCCl)N=O)CC1 (stereo not given)
  A = 6.5; B = 9.7; C = -1.3; D = 1.0; E = -6.8

(41) CC(C)C[C@H]1C(=O)N2CCC[C@H]2[C@]2(O)O[C@](NC(=O)C3C=C4c5cccc6[nH]c(Br)c(c56)C[C@H]4N(C)C3)(C(C)C)C(=O)N12 (stereo not given in full)
  A = -2.6; B = 3.0; C = 0.1; D = 1.0; E = 2.2

(43) CCCNC(=O)NS(=O)(=O)c1ccc(Cl)cc1
  A = -7.8; B = -0.2; C = 7.7; D = -0.4; E = 3.5

# Screening data: PubChem, The Scripps Research Institute Molecular Screening Center
